# Screens: PubChem, National Center for Advancing Translational Sciences (NCATS)
# GCN5L2 inh – blocks human GCN5L2 histone acetyltransferase; GCN5L2 HAT assay, ThioGlo1 CoA-SH fluorescence; AID 504327; Q92830; actives 0.21% (n = 390,000); Potency, µM (series often up to 58.9 µM), inactives show top-dose activity change, negative = inhibition, hits mostly inhibitors
# Target sequence (Q92830 whole entry, looked up): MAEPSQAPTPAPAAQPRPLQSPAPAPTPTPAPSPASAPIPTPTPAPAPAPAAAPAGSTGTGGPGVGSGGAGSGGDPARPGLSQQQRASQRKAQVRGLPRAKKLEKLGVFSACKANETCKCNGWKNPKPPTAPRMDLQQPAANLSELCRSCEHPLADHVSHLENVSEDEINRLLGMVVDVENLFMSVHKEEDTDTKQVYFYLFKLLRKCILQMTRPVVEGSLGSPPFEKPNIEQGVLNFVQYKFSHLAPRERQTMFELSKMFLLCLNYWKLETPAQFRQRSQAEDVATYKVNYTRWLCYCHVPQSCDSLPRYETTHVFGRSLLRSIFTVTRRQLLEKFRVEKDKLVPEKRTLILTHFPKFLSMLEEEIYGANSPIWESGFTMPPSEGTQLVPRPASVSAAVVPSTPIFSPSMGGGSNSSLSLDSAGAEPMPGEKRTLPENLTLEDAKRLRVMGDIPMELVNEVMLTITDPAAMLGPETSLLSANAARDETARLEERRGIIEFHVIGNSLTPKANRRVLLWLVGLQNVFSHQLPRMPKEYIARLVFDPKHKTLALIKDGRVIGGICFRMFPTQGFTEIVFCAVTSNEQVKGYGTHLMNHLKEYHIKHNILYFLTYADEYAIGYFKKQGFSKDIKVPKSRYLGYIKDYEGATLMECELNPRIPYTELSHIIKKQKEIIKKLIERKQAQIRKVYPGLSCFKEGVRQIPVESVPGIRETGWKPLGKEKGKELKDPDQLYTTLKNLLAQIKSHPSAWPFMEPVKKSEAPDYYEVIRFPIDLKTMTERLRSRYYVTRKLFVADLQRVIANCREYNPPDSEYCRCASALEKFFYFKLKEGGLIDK
#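 Compounds, pin-transferred from DMSO stocks, meet 20nM GCN5L2 for 15 min before the reaction begins with H3(1-25) peptide (75uM) and acetyl-CoA (70uM). Thiol-reactive ThioGlo1 reports CoA release over 20 min at room temperature.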
# TDP1 cell CPT – growth inhibition of DT40 Tdp1-/-;hTDP1 cells with camptothecin (screen for TDP1 inhibitors). chicken DT40 Tdp1-/-;hTDP1 cells + 20 nM CPT, ATP luminescence, 48 h. Potency, µM (doses to about 46.2 µM), for inactives: top-dose activity change, negative = growth inhibition, actives largely listed as inhibitors. actives 12% (n = 420,000). AID 686979; further: nearly all actives have a fitted effect of over 55% in size
#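 Cell growth measured by CellTiter-Glo luminescence after a minimum 48 h, 37 C compound exposure with 20 nM CPT in Tdp1-knockout DT40 cells stably expressing hTDP1, seeded 400/well; qHTS titration format.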
# Starred values were filed as active, the others as inactive; ? = inconclusive; . = not tested or not shown; & = joins results of further samples; [ ] = remark or other dose. The call rests on the fitted dose curve; in most records, active means well fitted curve in the direction sought with a large enough effect; inconclusive means small, poorly fitted or top-dose-only effect, or another doubt; inactive means no such curve, though single readings can be large; an effect the other way counts as inactive or inconclusive. On the % scale 0 is the no-effect control and ±100 the full control effect; potency means the concentration at half of the fitted maximal effect. These rows are one share of the data, and most or all hits are left out here.
SMILES,GCN5L2 inh,TDP1 cell CPT
Nc1ccc(S(=O)(=O)N2CCc3ccccc32)cc1,-5%,-23%
CCc1nc2nc(C)c(NS(=O)(=O)c3ccc(C(C)(C)C)cc3)c(=O)n2[nH]1,-17%,7%
O=C(COC(=O)C(Cc1ccccc1)NC(=O)c1ccccc1)c1ccccc1 (stereo unspecified),5%,4%
CCOc1ccccc1C(=O)NCC(=O)NCCCSc1ccccc1,-7%,-12%
COc1ccc(CCNC(=O)CCS(=O)(=O)c2ccc(Br)cc2)cc1OC,-4%,-10%
COc1ccc(CCNC(=O)CSc2nccc(=O)[nH]2)cc1OC,-1%,1%
Cc1ccc(-n2nnnc2SCC(=O)NCC2(N3CCOCC3)CCCCC2)c(C)c1,-4%,?
CCOc1cc(CNC(=O)c2ccc(C)c(NC(=O)c3nsc4ccccc34)c2)ccc1OC,-8%,7.3µM*
O=C(c1ccccc1)c1c(O)nc(-c2ccccc2)n(-c2ccccc2)c1=O,1%,0%
O=C(OCC(=O)N1CCC(Cc2ccccc2)CC1)c1ccc[nH]c1=O,-6%,-6%
COCCCNC(=O)N1c2ccccc2Sc2ccccc21,?,8%
CN(Cc1cnccn1)Cc1nc(Cc2ccccc2Cl)no1,0%,-8%
O=C(O)CCc1ccc(NCc2cccc(Oc3ccccc3)c2)cc1,-23%,.
COc1cc(OC)cc(C(=O)NNC(=O)CNC(=O)c2ccc(Br)o2)c1,-10%,21%
O=C(CCN1CCOCC1)Nc1cccc(Br)c1,0%,-27%

# Exported with two lines to a compound: four of the compounds above.
# Order of results – GCN5L2 inh	TDP1 cell CPT
- O=C(CCN1CCOCC1)Nc1cccc(Br)c1
  0%	-27%
- CCOc1ccccc1C(=O)NCC(=O)NCCCSc1ccccc1
  -7%	-12%
- O=C(c1ccccc1)c1c(O)nc(-c2ccccc2)n(-c2ccccc2)c1=O
  1%	0%
- COc1ccc(CCNC(=O)CSc2nccc(=O)[nH]2)cc1OC
  -1%	1%

# Next entries follow:
SMILES,GCN5L2 inh,TDP1 cell CPT
COc1ccc(CNC(=O)c2cc(-c3ccccc3O)n[nH]2)cc1,0%,-10%
O=C(O)CCN1C(=O)S/C(=C\c2cccnc2)C1=O,?,2%
Cc1occc1C(=O)NNC(=O)c1nn(C)c(=O)c2ccccc12,1%,0%
O=C(CN1C(=O)C(=O)c2ccccc21)OCN1C(=O)c2ccccc2C1=O,2%,-5%
CCOc1ccc(CCNC(=O)c2cccc(S(=O)(=O)N3CCCCC3)c2)cc1OCC,-18%,13µM*
O=C(Nc1ccc(Cl)cc1)c1cccc(OC(=S)N2CCOCC2)c1,-4%,?
CCN(CC)CCn1c2c(c(SCC(=O)Nc3nc4ccccc4s3)nc1=O)CCC2,2%,-2%
CC1CN(C(=O)c2cnn3c(C(F)F)cc(-c4ccccc4)nc23)CC(C)O1 (stereo unspecified),-1%,-26%
Cc1ccccc1OCc1ccc(C(=O)N2CCOCC2)o1,0%,13%
O=C(NC1CC1)c1c(O)c2ccccc2[nH]c1=O,-1%,?
Cc1cccc(C)c1NC(=O)CN(C)CC(=O)N1CC(=O)Nc2ccccc21,-3%,10%
O=C(NNC(=O)c1ccc(-c2ccccc2)cc1)Nc1ccc(F)cc1F,-8%,-12%
CC(=O)N(c1ccc(N(C(C)=O)S(=O)(=O)c2ccccc2)cc1)S(=O)(=O)c1ccccc1,-15%,-12%
CCOc1ccc(NC(=O)NC2CCOC(C)(C)C2)cc1 (stereo unspecified),-10%,10%
Cc1cc(C)cc(NC(=O)c2cccc(N3C(=O)C4C5C=CC(C5)C4C3=O)c2)c1 (stereo unspecified),-17%,-13%
COc1cccc(NC(=O)C(Cc2ccccc2)NC(=O)C2CCC(C)CC2)c1 (stereo unspecified),-3%,-27%
CC(=O)c1ccc(OCCCC(=O)NC2=NCCS2)cc1,?,1%
COc1c(C)cc(C(=O)C2CCCN(C(=O)c3cc(C4CC4)[nH]n3)C2)cc1C (stereo unspecified),-2%,?
Cc1ccc(NC(=O)Cn2cc3c(n2)CCCC3)c(Cl)c1,-1%,-19%
Cc1ccc(NC(=O)c2cnn(-c3ccccc3)c2C)c(C)c1,-4%,?
CCC(C)N(C(=O)CSc1nc2ccc(OC)cc2[nH]1)C1CCS(=O)(=O)C1 (stereo unspecified),-7%,-1%
O=C(CCC(=O)N1CCSc2ccccc21)NCCc1ccccc1,-3%,3%
COc1ccc(C(CC(=O)Nc2ccc(C)cn2)N2Cc3ccccc3C2=O)cc1OC (stereo unspecified),-2%,-22%
CCOC(CNc1c([N+](=O)[O-])c(=O)n(C)c(=O)n1C)OCC,1%,-4%
O=C(Nc1ccc(C(=O)N2CCCC2)cc1)c1ccccc1F,1%,-25%
Cc1ccc(NC(=O)CSc2cn(CC(=O)N3CCCC3)c3ccccc23)cc1Cl,-13%,26µM*
CC1CCC(C(C)C)C(OC(=O)CSc2n[nH]c(=O)[nH]c2=O)C1 (stereo unspecified),-2%,-16%
COc1ccc(S[C@@H](CCN2CC[C@H](C)CCC2=O)c2ccccc2)cc1,-7%,10µM*
Cc1cc(C(=O)COC(=O)/C=C/c2cccc(Br)c2)c(C)n1C,-11%,-12%
Cc1cccc(/C=N/NC(=O)NC2CCCCC2)c1,-3%,-16%
Cn1c(=O)c2c(nc(CN3CCOCC3)n2CC(O)CO)n(C)c1=O (stereo unspecified),-2%,-4%
COc1cc(C(=O)NCCN2C(=O)S/C(=C\c3ccc(F)cc3)C2=O)ccc1OCC(=O)N1CCOCC1,0%,16µM*
CCOc1ccccc1C(=O)Nc1cnn(Cc2ccc(F)cc2)c1,-1%,2%
CCCCC(CC(C)O)c1n[nH]c(=S)n1-c1ccccc1 (stereo unspecified),-3%,-6%
Cc1cc(-c2nnc3n2N=C(c2ccccc2Br)CS3)n[nH]1,-8%,7%
COc1cc(OC)nc(NC2OC(=O)c3ccccc32)n1 (stereo unspecified),-3%,12%
COc1ccc(NC(=O)CN(C)C(=O)c2ccc(NS(=O)(=O)c3cccc([N+](=O)[O-])c3)cc2)cc1,-6%,?
Cc1ccc(OCc2cccc(S(=O)(=O)N(C)C)c2)c([N+](=O)[O-])n1,-1%,-28%
O=C(NCCc1ccccc1)c1ccc2[nH]c(=O)c(=O)[nH]c2c1,-4%,14%
Cc1ccc(O)c(C2=Nc3ccccc3C2(C)C)c1,-10%,?
CC(C)(C)OC(=O)NC1CNNC1=O (stereo unspecified),-8%,-17%
CCOC(=O)CN(C(=O)CSc1nnnn1C)c1ccccc1,1%,5%
COc1ccc(S(=O)(=O)N2CCOC23CCN(S(=O)(=O)c2cc(C)ccc2C)CC3)cc1,0%,21µM*
O=C(Nc1ccc(S(=O)(=O)N2CCCCC2)cc1)C1CC(=O)N(Cc2ccccc2)C1 (stereo unspecified),-11%,-13%
COc1nn(-c2nc(-c3ccccc3)cc(C(F)(F)F)n2)cc1[N+](=O)[O-],27%,22%
O=C1OCC2=C1C(c1ccc3c(c1)OCO3)Sc1ccccc1N2 (stereo unspecified),-5%,13µM*
O=C(NCc1ccncc1)C(=O)NCC1OCCCN1S(=O)(=O)c1cc(F)ccc1F (stereo unspecified),-16%,11%
COc1ccc(C2SCC(=O)N2c2c(C)n(C)n(-c3ccccc3)c2=O)cc1 (stereo unspecified),0%,0%
CCOC(=O)C1CCN(C(=O)COc2ccc(S(=O)(=O)NC(C)C)cc2Cl)CC1,1%,4%
CN(C)Cc1c(O)ccc2c(=O)c(-c3ccccc3Cl)coc12,-18%,-11%
COc1cc(OC)cc(C2=NCCN2)c1,-1%,20%
COc1ccc(CNc2nc3ccccc3n2CCN2CCCCC2)cc1,-6%,18µM*
CC(=O)Nc1nc(COc2ccccc2)cs1,3%,-10%
CCc1noc(C)c1C(=O)Nc1cccc(S(=O)(=O)N(C)c2ccccc2)c1,2%,?
O=C(CN1C(=O)NC2(CCCCC2)C1=O)Nc1cc(C(F)(F)F)ccc1N1CCCCC1,-3%,?
COc1cccc2cc(C(=O)NCc3ccc(Cl)cc3)c(=N)oc12,1%,23µM*
Cc1ccc(S(=O)(=O)N(C)CC(=O)N2CCc3ccccc32)cc1,-33%,-16%
CCOc1cc(/C=N\NC(N)=O)cc(Br)c1OC(C)C,-4%,-17%
COC(=O)c1ccc(N2CCOCC2)c(NC(=O)c2cccs2)c1,-5%,-15%
COc1ccc(N2C(=O)CS/C2=N\C(=S)Nc2ccccc2)cc1,4%,6.5µM*
# Next part
SMILES,GCN5L2 inh,TDP1 cell CPT
COc1ccc(N(CC(=O)NCCc2ccccc2)C(=O)CCC(=O)Nc2nccs2)c(OC)c1,-2%,?
COCCCNC(=O)CSc1c2c(nc3ccc(Cl)cc13)CCCC2,0%&-2%,?
O=C(Nc1ccccc1)C1CCN(C(=O)c2ccc([N+](=O)[O-])cc2)CC1,3%,-1%
CCOC(=O)C1=CN(Cc2ccco2)S(=O)(=O)N(CC)C1c1ccccc1 (stereo unspecified),-4%,?
CC(=O)OCC1=C(C(=O)O)N2C(=O)C(NC(=O)C(C)Cn3nc(C)c(Cl)c3C)C2SC1 (stereo unspecified),3%,-6%
COCCNc1c2c(nc3ccccc13)CCC2,-2%,-20%
CCCCN(C)CCNC(=O)c1cc(=O)[nH]c2ccc(S(=O)(=O)N3CCCCCC3)cc12,2%,-11%
Cc1cc(C)c(NC(=O)NC2CCCCC2)c(C)c1,-3%,-4%
Cc1c(N=Cc2ccc(Cl)o2)c(=O)n(-c2ccccc2)n1C,11%,-14%
Cc1ccc(-c2nc(CS(=O)(=O)CC(=O)NCc3ccc4c(c3)OCO4)c(C)o2)cc1,0%,2%
CSc1ncccc1C(=O)OCC(=O)c1ccc[nH]1,-3%,-13%
CCC(=O)c1ccc(N2CCN(C(=O)c3cc([N+](=O)[O-])ccc3F)CC2)c(F)c1,-11%,?
CC(CCN1CCN(c2ccccc2)CC1)c1ccccc1 (stereo unspecified),-1%,5%
CCOC(=O)CN1C(=O)CCSc2ccc(Cl)cc21,34%[activator],-2%
Cn1c(C(=O)OC(C(=O)NC(C)(C)C)c2cccnc2)cc2sccc21 (stereo unspecified),0%,2%
C/C(O)=C(/C=Nc1ccccc1)C(=O)Nc1ccccc1,-5%,-4%
Cc1ccc2c(CC(=O)NCC3(N4CCOCC4)CCCCC3)coc2c1C,-10%,?
COc1ccc(CN2CCN(C(=O)CC(C)C)CC2)cc1,-19%,0%
Cc1ccc(C(=O)N/N=C\c2ccc(-c3ccc([N+](=O)[O-])cc3)o2)cn1,-2%,0%
Cc1ccc(-c2csc(NC(=O)C3=COCCO3)n2)cc1,-6%,?
O=S(=O)(c1ccccc1F)N1CCN(c2nc3ccccc3s2)CC1,-7%,-2%
COc1ccc(-n2nc(C(=O)NCC(=O)N3CC(C)CC(C)C3)c3ccccc3c2=O)cc1OC (stereo unspecified),-3%,?
CCN(CC(=O)Nc1c(F)cccc1F)C(=O)Cc1ccsc1,1%,8%
COc1ccc(/C=N/NC(=O)CNC(=O)c2ccc3c(c2)OCCO3)c(C(=O)O)c1OC,-5%,-2%
O=C(Nc1ccccc1C(=O)O)c1ccc2c(c1)C(=O)N(c1cccc([N+](=O)[O-])c1)C2=O,-11%,21%
COc1cccc(OCCCCN2CCCCC2)c1,-34%,-4%
Cc1cc(=O)oc(C)c1C(=O)OCC(=O)c1ccccc1,-9%,-9%
CCOC(=O)c1ccc(NC(=O)CN2C(=O)C(=O)N(CC(C)C)C2=O)cc1,?,-27%
COc1ccc(-c2c(C(=O)O)nc3ccccc3c2C(=O)O)cc1,-27%,0%
COc1ccc(OCCNC(=O)C(c2ccccc2)c2ccccc2)cc1,-3%,-4%
Cc1cc(=O)n2nc(N3CCCC(C(=O)NCc4ccccc4Cl)C3)sc2n1 (stereo unspecified),-28%,-11%
CCCNC(=O)CN(C)C(=O)c1n[nH]c2ccccc12,2%,-3%
CC(C)C(=O)Nc1ccc(NC(=O)c2ccccc2Cl)nc1,4%,-11%
CCOc1ccc(N2CC(NC(=O)c3ccc4ccccc4c3)CC2=O)cc1 (stereo unspecified),2%,?
Cc1ccc(Cl)c2sc(NC(=O)C3CC3)nc12,-7%,5%

# In the list so far, these contain an aryl thioether with sulfur outside any ring.
SMILES,GCN5L2 inh,TDP1 cell CPT
CCOc1ccccc1C(=O)NCC(=O)NCCCSc1ccccc1,-7%,-12%
COc1ccc(CCNC(=O)CSc2nccc(=O)[nH]2)cc1OC,-1%,1%
Cc1ccc(-n2nnnc2SCC(=O)NCC2(N3CCOCC3)CCCCC2)c(C)c1,-4%,?
CCN(CC)CCn1c2c(c(SCC(=O)Nc3nc4ccccc4s3)nc1=O)CCC2,2%,-2%
CCC(C)N(C(=O)CSc1nc2ccc(OC)cc2[nH]1)C1CCS(=O)(=O)C1 (stereo unspecified),-7%,-1%
Cc1ccc(NC(=O)CSc2cn(CC(=O)N3CCCC3)c3ccccc23)cc1Cl,-13%,26µM*
CC1CCC(C(C)C)C(OC(=O)CSc2n[nH]c(=O)[nH]c2=O)C1 (stereo unspecified),-2%,-16%
COc1ccc(S[C@@H](CCN2CC[C@H](C)CCC2=O)c2ccccc2)cc1,-7%,10µM*
CCOC(=O)CN(C(=O)CSc1nnnn1C)c1ccccc1,1%,5%
COCCCNC(=O)CSc1c2c(nc3ccc(Cl)cc13)CCCC2,0%&-2%,?
CSc1ncccc1C(=O)OCC(=O)c1ccc[nH]1,-3%,-13%
